E coli growth – E. coli growth inhibition; Escherichia coli growth, OD600, 23 h; active compounds read low; OD600 absorbance (test concentration not listed); 330,000 tested, 0.21% active; AID 1053175;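 active = OD600 absorbance below the run mean of sample wells minus 3.6 SD, in any replicate, cut at about 0.56 in these data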;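 also: stock transfer was 300 nL into about 60 µL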
Beta2AR agonist – human beta-2 adrenergic receptor agonism by FAP. P07550. 340,000 tested, 0.43% active. response, % (concentration not given with the values). Am2.2-beta2AR cells, FAP receptor internalization, flow cytometry; reference of the scale not given here;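 active = response above a set limit, near 3 SD of response in nonfluorescent compounds, cut at about 42% in these data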;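 also: stock transfer was 100 nL into about 11 µL; a reference agonist was the positive control; negative values mostly stem from fluorescent compounds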
Target sequence (P07550 whole entry, looked up): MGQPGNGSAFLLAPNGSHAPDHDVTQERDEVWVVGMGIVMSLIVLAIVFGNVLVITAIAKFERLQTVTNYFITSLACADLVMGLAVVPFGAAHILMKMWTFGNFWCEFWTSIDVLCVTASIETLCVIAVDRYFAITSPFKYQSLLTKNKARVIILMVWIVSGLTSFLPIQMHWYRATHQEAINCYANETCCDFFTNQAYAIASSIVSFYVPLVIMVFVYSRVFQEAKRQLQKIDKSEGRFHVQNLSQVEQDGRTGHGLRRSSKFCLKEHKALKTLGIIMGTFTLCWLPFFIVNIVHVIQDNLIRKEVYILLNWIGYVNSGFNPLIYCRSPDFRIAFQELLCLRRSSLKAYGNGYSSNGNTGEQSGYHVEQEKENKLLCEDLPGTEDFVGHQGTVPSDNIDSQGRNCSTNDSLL
UCH37 inh – blocks the human deubiquitinase UCH37 | inhibition, % (concentration not given with the values) | Q9Y5K5 | 330,000 tested, 0.33% active | AID 588478 | purified proteasome/UCH37, Ub-AMC cleavage fluorescence;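 active = mean of two replicates above 20%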;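 also: 0% = compound-free wells with enzyme and 100% = wells lacking proteasome; stock transfer was 100 nL into about 20 µL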
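Reagent: Ub-AMC substrate; assay system: Proteasome-associated human UCH37 deubiquitinase; controls: no-proteasome and no-compound wells; read-out: % inhibition of Ub-AMC cleavage fluorescence; timing: 30 min preincubation with enzyme, 25 min cleavage at room temperature; signal: AMC fluorescence from Ub-AMC cleavage, excitation 355 nm, emission 460 nm; buffer or medium: Tris-HCl pH 7.4 plus ovalbumin, ATP-MgCl2, DTT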
ALR inh – blocks human ALR sulfhydryl oxidase activity. inhibition, % (no concentration beside the values). AID 485317. purified ALR, DTT oxidation, H2O2 HRP-luminol luminescence. 290,000 tested, 3.8% active. P55789;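 active = mean and each replicate at 75% or more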;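 also: stock transfer was 7.5 nL into about 7.5 µL; 0% = neutral wells and 100% = wells with inactivated enzyme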
HNF4A DNA FP – change in binding of human HNF4 alpha to DNA; activity change, % at 10 µM; P41235; HNF4a-FITC DNA binding, fluorescence polarization, 1 h; 360,000 tested, 0.3% active; AID 1224865; in the data active = activity change above about 30%, passing the limit was not always enough;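 also: controls were the assay level and a saturating level of protein; the project sought stronger binding though the title names inhibitors; some compounds called inactive have numbers as strong as hits; positive values seem to mean higher polarization but the record does not say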
Target sequence (P41235 whole entry, looked up): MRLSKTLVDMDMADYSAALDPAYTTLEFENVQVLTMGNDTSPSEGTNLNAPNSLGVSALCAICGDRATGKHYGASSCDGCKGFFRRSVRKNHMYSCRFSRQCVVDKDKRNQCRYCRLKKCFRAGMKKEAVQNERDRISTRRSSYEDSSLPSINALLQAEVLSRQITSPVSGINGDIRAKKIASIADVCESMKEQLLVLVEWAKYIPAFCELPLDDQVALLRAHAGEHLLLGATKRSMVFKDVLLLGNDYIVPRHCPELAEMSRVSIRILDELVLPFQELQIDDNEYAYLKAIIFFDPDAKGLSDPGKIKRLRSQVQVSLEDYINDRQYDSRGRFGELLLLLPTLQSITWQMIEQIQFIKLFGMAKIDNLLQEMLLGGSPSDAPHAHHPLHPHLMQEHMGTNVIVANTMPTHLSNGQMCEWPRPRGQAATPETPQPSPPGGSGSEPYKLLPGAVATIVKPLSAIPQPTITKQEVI
LANA-H2A inh – blocks KSHV LANA binding to histone H2A/H2B; AID 2629; Q9QR71; cell-free LANA-H2A/H2B peptide, fluorescence polarization; 320,000 tested, 0.6% active; inhibition, % (no concentration beside the values); in the data active = inhibition mostly above about 10%, no sharp cut-off; inactive = mostly below about 6.7%;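 also: stock transfer was 7.5 nL into about 10 µL; 0% = median of vehicle wells and 100% = median of positive control wells; one replicate is shown; the record names a cut of 25% in any replicate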
FGF22 binding – FGF22 (human) thermal shift binding; recombinant FGF22 thermal shift, SYPRO orange fluorescence; percent of sucrose octasulfate shift, DMSO zero; 340,000 tested, 1.5% active; calls only at 9.99 µM; Q9HCT0;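 active = melting point raised past a set limit in the mean and every replicate; three in four hits are not shown here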
Target sequence (Q9HCT0 whole entry, looked up): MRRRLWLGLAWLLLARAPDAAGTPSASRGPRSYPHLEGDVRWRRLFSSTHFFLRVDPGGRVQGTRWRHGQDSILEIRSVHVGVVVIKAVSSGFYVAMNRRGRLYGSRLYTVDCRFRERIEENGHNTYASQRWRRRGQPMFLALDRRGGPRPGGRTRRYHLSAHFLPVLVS
An asterisk follows results filed as active; i = inactive; x = no result given.

SMILES	E coli growth	Beta2AR agonist	UCH37 inh	ALR inh	HNF4A DNA FP	LANA-H2A inh	FGF22 binding
O=C(CN1C(=O)NC2(CCc3ccccc32)C1=O)Nc1cccc(F)c1 (stereo unspecified)	0.62	-3	2.1	-1	3.6	-1.8	i
CC1CCCN(C(=O)CN2C(=O)C(C)Oc3ccccc32)C1 (stereo unspecified)	0.7	5	0.5	13	1.4	-0.3	i
O=C(NC12CCC(O)C(SC1)/C2=N/O)c1ccccc1 (stereo unspecified)	x	0	x	-22	-1.0	4.7	x
COc1cccc(-c2cc(C(F)(F)F)nc(N3CCN(c4ccccc4)CC3)n2)c1	0.73	-1	6.7	-20	-2.8	-4.6	x
O=C(c1ccc(Cl)cc1)C1CCCN(Cc2cccn2-c2ccccn2)C1 (stereo unspecified)	0.68	7	4.4	-3	1.3	2.3	i
CC(C)(C)CC(=O)Nc1ccc(Nc2ccccc2)cc1	0.69	6	5.0	99*	-3.1	11	x
Cc1cccnc1NC(=O)c1csnn1	x	-4	x	-11	0.2	-3.8	i
Cc1ccc2c(c1)C(=O)C(=O)N2Cc1ccc(F)cc1	0.63	15	2.7	-5	-3.5	4.0	i
CCOc1cc(CNn2nnnc2N)cc(Cl)c1OCC(=O)NC(C)(C)C	0.72	-25	4.2	x	4.3	1.1	x
COCC(=O)Nc1cc([N+](=O)[O-])ccc1OC	0.73	-2	5.9	-3	-2.9	-2.2	x
CC1Cc2cc(/C=C3/SC(N4CCC(C(N)=O)CC4)=NC3=O)ccc2O1 (stereo unspecified)	0.66	-9	5.5	33	-0.6	7.8	i
Cc1nn(C(C)C(=O)N2CCN(c3ccccn3)CC2)c(=O)c2cc3occc3n12 (stereo unspecified)	0.71	-17	3.7	-12	-1.3	-1.8	x
Cc1c(C(=O)N2CCCC2)c(S(=O)(=O)Nc2ccccc2)c(C)n1C	0.69	17	1.3	-2	0.7	-0.9	i
COC(=O)C(Cc1ccccc1)NC(=O)CCNC(=O)c1ccc(Br)cc1 (stereo unspecified)	0.66	11	5.3	-7	-2.3	2.6	i
CN(Cc1ccco1)c1ncnc2ccc(-c3ccccc3Cl)cc12	0.68	1	-0.6	-3	0.0	-3.2	i
Cc1ccc(C(=O)N/C(=C\c2cn(C)c3ccccc23)C(=O)OCCN(C)C)cc1	0.71	-1	14	38	5.9	5.8	i
CCc1nc(SCC(=O)Nc2nc3c(s2)CCCC3)c2ccccc2n1	0.7	-16	6.9	99*	0.9	3.3	x
CCn1cc([N+](=O)[O-])c(C(=O)N2CCCC2)n1	0.67	3	4.6	x	-0.1	x	x
COc1ccc(CN2CCN(C(=O)c3cccs3)CC2)cc1	0.71	27	3.4	-5	-2.9	1.7	x
Cc1cc(F)c(F)c(C(=O)N2CCC(C)CC2)c1Cl	0.71	5	5.2	-2	-2.5	-0.8	x
O=C(CN1CCN(c2ccccc2O)CC1)Nc1ccc(S(=O)(=O)N2CCCCCC2)cc1	0.65	23	-0.5	x	3.8	x	i
Cc1ccc(S(=O)(=O)C2(C(=O)NC3CCCCC3)CC2)cc1	0.66	-1	3.7	-7	-0.9	-0.9	i
COc1cc(/C=N/Nc2nc(C)nc3c2cnn3-c2ccccc2)ccc1O	x	29	x	x	4.8	x	i
Cc1cccc(OCCC(=O)Nc2ccc(Cl)cc2F)c1	0.68	-5	2.1	0	-1.9	2.3	i
CCOC(=O)CNC(=O)c1cc(-c2ccc3c(c2)OCCO3)oc1C	0.74	0	-1.5	12	-3.0	2.5	x
SMILES	E coli growth	Beta2AR agonist	UCH37 inh	ALR inh	HNF4A DNA FP	LANA-H2A inh	FGF22 binding
CCOC(=O)CC1C(=O)NCCN1Cc1ccc(OC)c(OC)c1 (stereo unspecified)	0.69	5	0.9	-2	3.3	2.1	i
CCCCn1c(/N=C/c2c[nH]c3ccccc23)nc2ccccc21	x	10	x	0	3.1	-1.3	x
CCCOc1ccc(CNC(=O)C2CCN(c3nn4c(=O)cc(C)nc4s3)CC2)cc1	0.71	-8	1.3	x	-0.1	3.5	i
COc1ccc(NS(=O)(=O)c2ccc(-c3coc(C)n3)cc2)c(OC)c1	0.67	-2	-1.3	-6	7.4	-3.5	i
O=C(CN1CCN(C(=O)c2ccc(OCc3cn4ccccc4n3)cc2)CC1)Nc1cccc(F)c1	0.66	-8	-2.6	-1	-4.2	2.6	i
CCCNC(=O)C1CNc2ccccc2O1 (stereo unspecified)	0.7	2	2.0	35	0.2	-4.5	x
COc1cccc(-c2ccc(=O)n(CC(=O)Nc3cc4c(cc3NC(C)=O)OCCO4)n2)c1	0.74	6	0.4	-15	-2.0	-2.5	i
Cc1sc2ncn(-n3c(C)ccc3C)c(=O)c2c1C	0.73	5	2.4	-4	0.2	-1.3	x
COc1ccc(NS(=O)(=O)c2cccc(C(=O)N/N=C(\C)c3ccc(-n4ccnc4)cc3)c2)cc1	x	4	x	7	-2.5	4.9	x
COC(=O)Cc1csc(Nc2ccccc2)n1	0.7	-2	1.6	x	3.1	-7.9	i
COc1ccc(N2CCN(S(=O)(=O)c3ccc(Br)s3)CC2)cc1	0.73	0	0.3	-10	0.5	-2.9	x
O=C(CSc1nnc(CNC(=O)C23CC4CC(CC(C4)C2)C3)n1-c1ccc(F)cc1)Nc1ccc(F)cc1	0.72	-4	2.3	-15	-3.8	2.7	i
CSCCC(NC(=O)c1ccco1)C(=O)Nc1ccc(C)c(S(=O)(=O)N2CCOCC2)c1 (stereo unspecified)	0.73	4	1.8	-1	1.7	1.8	i
CCc1cc(C(=O)c2ccc(Br)cc2)c(NC(=O)CN(CC)CC)s1	0.69	-10	5.1	0	2.1	-0.7	i
Nc1c(Cl)ncnc1N1CCN(c2ncnc(Cl)c2N)CC1	0.7	4	2.1	-4	-4.5	8.6	i
Cc1c(Cl)cccc1S(=O)(=O)N1CCC(C(=O)NNC(=O)C2CC2)CC1	0.66	-2	1.0	0	3.2	3.9	i
N#CC1=C(N)OC2=C(CC/C2=C\c2ccccc2Cl)C1c1ccccc1Cl (stereo unspecified)	0.68	-14	-14	-8	81	-7.4	i
CCN(CC(=O)Nc1c(F)cccc1F)C(=O)CSc1nnc(-c2ccco2)n1CC	0.69	-11	1.1	22	1.8	-3.4	i
Cc1cc(Cl)ccc1OCC(=O)N(Cc1ccco1)C1CCS(=O)(=O)C1 (stereo unspecified)	0.68	-8	4.2	-5	2.5	-0.5	i
O=C(c1ccco1)N1CCN(C(=S)Nc2ccccc2C(F)(F)F)CC1	0.66	4	4.1	7	1.2	1.0	i
COc1ccc(NC(=O)c2sccc2OS(=O)(=O)N(C)C)cc1	0.7	-4	5.0	-4	1.4	-4.7	x
Cc1cccc(NC(=O)C2CCN(S(=O)(=O)c3c(C)noc3C)CC2)c1	0.71	4	1.0	-3	-0.3	3.2	i
CC(C)CCNC(=O)COC(=O)c1cc(Br)c(Br)s1	0.7	-1	-2.2	0	4.3	1.2	i
Cc1cccc(N2CCN(C(=O)c3cnn4c(C(F)F)cc(-c5ccccc5)nc34)CC2)c1C	0.74	-1	1.3	x	-7.3	x	i
COc1ccc(/C=C2\SC(=N)N(c3ccc(F)cc3)C2=O)cc1OC	0.67	5	2.8	6	4.0	-1.4	i
SMILES	E coli growth	Beta2AR agonist	UCH37 inh	ALR inh	HNF4A DNA FP	LANA-H2A inh	FGF22 binding
CCCCCCCc1c(O)nc(SCC(=O)O)[nH]c1=O	0.64	-5	0.9	12	-2.6	48*	i
CC(=O)Nc1ccc(NC(=O)COc2ccc([N+](=O)[O-])cc2)cc1	0.72	-12	2.3	-5	1.7	-0.7	i
NC(=O)C[C@@H]1N[C@]2(C(=O)Nc3ccccc32)[C@@H]2C(=O)N(C3CCCCC3)C(=O)[C@H]12	0.67	-5	-0.2	-2	-2.6	2.6	x
COc1ccc(N(Cc2nnc3n2CCCCC3)C(=O)Nc2ccccc2)cc1	0.71	-2	1.5	1	-2.3	1.1	i
COc1ccc(-c2nn(CCC(=O)O)cc2/C=C/C(=O)O)cc1[N+](=O)[O-]	0.71	7	4.5	-8	1.5	0.7	i
O=C(CO/N=C/c1ccccc1OC(F)F)N1CCc2ccccc21	x	0	x	-12	-1.5	-1.1	i
O=C(NC(=S)N1CCCc2ccccc21)c1ccc(Cl)cc1	0.66	0	-3.0	51	-2.5	-3.8	x
Cc1cccc(C(=O)Nc2nccs2)c1[N+](=O)[O-]	0.7	-13	4.9	-13	-1.9	6.2	i
CC(C)CN1CCC(=O)N([C@H](COc2ccccc2)c2ccccc2)CC1	x	-2	0.7	x	2.5	2.6	i
O=C(CSc1ccc([N+](=O)[O-])cc1)Nc1nnc(C2CC2)s1	0.71	-5	5.8	4	-1.1	-3.3	i
Cc1ccc(N2C(=O)C(CN3CCOCC3)C2c2ccccc2)cc1 (stereo unspecified)	0.71	-5	0.7	-1	0.2	7.2	i
CN(C)c1ccc(CN(C(=O)COc2ccc(Br)cc2)C2CCS(=O)(=O)C2)cc1 (stereo unspecified)	0.73	-10	4.3	5	1.8	-3.2	x
O=C(COC(=O)c1ccc([N+](=O)[O-])o1)c1ccccc1	0.71	6	1.9	-20	4.1	-0.1	x
Cc1ccc(S(=O)(=O)NCCSc2ncccn2)cc1	0.71	1	-2.6	-15	0.1	3.9	x
COc1ccc(OC)c2c1CC(C)(C)NC2=O	0.73	11	-162	-12	-1.1	0.7	i
CC(C)NC(=O)c1cc2c(s1)CCCC2	0.67	-2	3.1	-11	7.5	0.3	x
Cc1csc(NC(=O)CSc2nnc(-c3cc(C)on3)o2)n1	0.7	9	3.9	94*	3.2	-1.1	i
CC(=O)N1CCC(=O)N(C(C)C)c2ccccc21	0.77	0	-0.1	-6	0.4	7.8	x
Nc1nonc1-n1nnc(C(=O)N/N=C/c2cccc(Cl)c2Cl)c1CN1CCCC1	x	-4	x	-1	0.1	0.5	i
COCCn1nnnc1C(c1ccc(OC)cc1OC)N1CCN(c2ccccc2)CC1 (stereo unspecified)	0.71	10	0.2	11	2.9	1.1	x
CN(C(=O)C12CC3CC(CC(C3)C1)C2)C1(C)CCS(=O)(=O)C1 (stereo unspecified)	0.73	2	30*	-27	-2.0	-9.5	x
OCCCNCc1ccc(-c2ccccc2)cc1	0.7	1	-2.0	-14	4.6	-0.1	i
O=C(COc1ccc(Cl)cc1)NN=C1CCCCCCC1	x	-8	x	-12	-2.9	-3.7	i
Fc1ccc(CSc2ccc3nnc(-c4cccnc4)n3n2)cc1	0.69	5	0.4	-7	0.2	9.9	i
Clc1ccc(CNc2ncnc3[nH]ncc23)cc1Cl	0.65	-1	4.4	x	-0.4	x	i
SMILES	E coli growth	Beta2AR agonist	UCH37 inh	ALR inh	HNF4A DNA FP	LANA-H2A inh	FGF22 binding
OCCCN1c2ccccc2Nc2nnc(-c3ccccc3)cc21	0.69	10	4.1	x	-0.1	-1.4	x
COc1ccc(C(CNC(=O)c2ccc(NS(=O)(=O)c3ccccc3)cc2)N2CCOCC2)cc1 (stereo unspecified)	0.69	4	-1.0	x	3.7	x	i
O=C(NNC(=O)c1ccccc1-n1cccc1)c1ccccc1	0.78	-1	1.5	x	0.5	-4.7	x
Cc1csc(NC(=O)CCc2c(C)nc3cc(-c4ccc(Cl)cc4)nn3c2C)n1	0.72	63*	-94	2	2.8	3.7	i
O=C(CSc1nc2ncccc2[nH]1)Nc1ccc2c(c1)OCCO2	0.75	-16	5.6	69	2.3	-0.5	x
CC1CCN(c2ccc3c(c2)S(=O)(=O)c2cccc(C(=O)NCc4ccc(F)cc4)c2C3=O)CC1	0.71	-4	-0.4	-1	-101	-1.5	i

Grouped by structure: the compounds so far with a COOH group.
SMILES	E coli growth	Beta2AR agonist	UCH37 inh	ALR inh	HNF4A DNA FP	LANA-H2A inh	FGF22 binding
CCCCCCCc1c(O)nc(SCC(=O)O)[nH]c1=O	0.64	-5	0.9	12	-2.6	48*	i
COc1ccc(-c2nn(CCC(=O)O)cc2/C=C/C(=O)O)cc1[N+](=O)[O-]	0.71	7	4.5	-8	1.5	0.7	i

Compound activity as filed in PubChem.

A portion of the library; rates above refer to the full screens.
